# Sa RN4220 lethal – growth inhibition of S. aureus RN4220, primary screen, OD600; inhibition, % (test concentration not listed); 16 h; 330,000 tested, 0.33% active; AID 1259311, 2017;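 active = z-score of -3 or lower and OD600 up to 0.18 on both plates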;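 note: plate controls were untreated cells for no effect and reference antibiotic for full effect; stock transfer was 100 nL into about 80 µL; one replicate is shown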
# Mtb hypoxia inh – PubChem AID 1159583. M. tuberculosis hypoxia-regulated fluorescent reporter, fluorescence. fluorescence inhibition, % (concentration not given with the values). 300,000 tested, 0.1% active;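 active = 35 to 45% if threefold the growth effect, above 45% if 1.5-fold the growth effect; inactive = the rest, general growth blockers included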;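 note: wells of about 50 µL received 100 nL stock; 0% = vehicle wells and 100% = reference inhibitor wells; whole bacteria with a GFP reporter of the hypoxia response; strong numbers were not always called active; many hits fall short of the cut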
# BJeLR viability – MLPCN primary cell-based screen for lethality selective to Ras in HRASV12 cells; BJeLR (HRASV12) viability, CellTiter-Glo ATP luminescence, 48 h; reference of the scale not given here; inhibition, % (no concentration beside the values); 300,000 tested, 0.17% active; AID 1554, 2009;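 active = replicate mean above 50%; inconclusive = above 50% but judged a plate artefact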;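 note: 50 nL library stock added to about 25 µL; numbers are from one replicate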
# Sa ugtP lethal – growth inhibition of ugtP-null S. aureus, primary screen, RN4220 ugtP deletion, OD600. growth inhibition, % (concentration not given with the values). 330,000 tested, 0.54% active. AID 1259309, 2017. 16 h; some inactives read as strong as hits;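 active = z-score under -3 and OD600 up to 0.15 on both plates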;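 note: plate controls were untreated wells for no effect and antibiotic for full effect; wells of about 80 µL received 100 nL stock; the first replicate is given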
# Autofluor counter – counter-screen for toxin protease inhibitors: compound fluorescence | compound autofluorescence counterscreen, microsphere flow cytometry; hits give high values | fluorescence intensity (test concentration not listed) | 360,000 tested, 3.1% active;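 active = at least 3 SD above the mean of all compounds, about 16000 in these data; inconclusive = too few beads counted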;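 note: 100 nL of 1 mM stock went into each well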
# PrP 5UTR inh – inhibition of PrP 5' UTR reporter expression. cell-based PrP 5' UTR mRNA reporter, plate reader. 340,000 tested, 0.35% active. inhibition, % (no concentration beside the values);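 active = every replicate at 50% or more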;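 note: 0 = median of the neutral control wells; tested in H4 reporter cells; numbers are from one replicate; inactives centre near -14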
# Mtb hypoxia inh growth – recorded beside Mtb hypoxia inh, whose call it bears; growth inhibition, %; measured here: M. tuberculosis growth (absorbance);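 0% = vehicle and 100% = reference antibiotic; read after six days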
# Numbers without * were called inactive; ? = inconclusive; . = not tested or not shown. Compounds were not picked by outcome; overall some 4% were active at least once.
1: O=C(c1cnccn1)N1CCc2ccccc2C1
2: Cc1ccc(NC(=S)N(Cc2cccc(Br)c2)CC2CCC(C(=O)O)CC2)cc1 (centres undefined)
3: CCN(Cc1ccccc1)C(=O)CSc1ccccc1C(=O)O
4: Nc1cc(C(=O)OCC(=O)NCc2ccc(F)cc2)ccc1Cl
5: COCC(=O)N(CCc1ccc(OC)c(OC)c1)Cc1cc2cc(C)ccc2nc1Cl
6: Fc1ccc(NC(=S)Nc2ccc(Cl)cc2)cc1
7: NS(=O)(=O)c1ccc(CCNC(=O)CNC(=O)c2ccccc2Br)cc1
8: COc1cc(NS(=O)(=O)c2cccc3nsnc23)c(C(=O)O)cc1OC
screen / no.	1	2	3	4	5	6	7	8
Autofluor counter	4400	3319	4407	2354	4752	1998	5217	2485
Mtb hypoxia inh	9	3	21	-7	3	-1	12	7
Mtb hypoxia inh growth	12	3	3	-1	2	3	11	6
BJeLR viability	-18	3	3	0	-1	7	-11	2
Sa RN4220 lethal	2.2	8.5	2.1	-1.2	4.9	2.3	3.5	-17
Sa ugtP lethal	-2	7	4	-10	2	-9	1	-7
PrP 5UTR inh	-25	-31	-11	-15	-9	1	-11	4

9: COc1ccc(C(=O)CN2C(=O)NC3(CCc4ccccc43)C2=O)c(OC)c1 (centres undefined)
10: O=C(CCOc1ccccc1)Nc1nnc(-c2ccc3c(c2)OCCO3)o1
11: Cc1ccc(/C=N/NC(=O)CNC(=O)c2cccc([N+](=O)[O-])c2C)o1
12: Cn1cccc1C1C(C#N)=C(N)OC2=C1C(=O)CC(C)(C)C2 (centres undefined)
13: CC(=O)N(Cc1ccco1)C1(C(=O)NC2CCCCC2)CCCCC1
14: CCN(CC)S(=O)(=O)c1cccc(NC(=O)c2ccc(Br)cc2)c1
15: CCc1cccc2c1NC(=O)C21N2CCCC2C(C(=O)c2ccc3ccccc3c2)C12C(=O)Nc1ccccc12 (centres undefined)
16: C#CCOCCOCCOCCNc1nc(N2CCN(C(=O)C([C@@H](C)O)n3cc([C@@H](N)CCCCN)nn3)CC2)nc(N2CCN(C(=O)[C@H](CC(N)=O)n3cc(C(N)[C@@H](C)CC)nn3)CC2)n1 (some centres undefined)
screen / no.	9	10	11	12	13	14	15	16
Autofluor counter	4522	4476	5391	4710	4232	4146	2099	3827
Mtb hypoxia inh	7	-1	.	0	.	5	-1	3
Mtb hypoxia inh growth	-5	8	.	7	.	19	-1	11
BJeLR viability	6	3	-1	-3	16	2	10	.
Sa RN4220 lethal	3.9	-0.5	.	4.3	-3.2	-4.1	-0.3	0.3
Sa ugtP lethal	12	-3	.	14	1	-6	-18	1
PrP 5UTR inh	-9	-5	-17	-71	-19	-16	-34	-4

17: CO/N=C(/CS(=O)(=O)c1ccc(Br)cc1)c1ccc(OC)cc1
18: Cc1c(NC(=O)c2cc(-c3cccs3)on2)c(=O)n(-c2ccccc2)n1C
19: O=C(Nc1ccc(NC(=O)c2ccc([N+](=O)[O-])cc2[N+](=O)[O-])cc1)c1ccco1
20: CCC1=C(OC(=O)N(CC)CC)N2C(=O)OC(=NCc3ccccc3)[C@]2(C)[C@H]2C1=CC[C@H]1C(=O)NC(=O)[C@H]12
21: CCn1c(SCC(=O)NN=Cc2ccccc2OCC(=O)O)nnc1-c1ccc(C(C)(C)C)cc1
22: O=C(O)C(CC1CCCCC1)N1CCS(=O)(=O)CC1 (centres undefined)
23: CCN(CC)CCn1c(=N)n(CCOc2ccccc2)c2ccccc21
24: N#Cc1c(NCCCO)nc(NCc2ccccc2)c2c1CCN(Cc1ccccc1)C2
screen / no.	17	18	19	20	21	22	23	24
Autofluor counter	2355	8090	3146	3053	.	3315	25371*	2786
Mtb hypoxia inh	.	4	19	.	1	-1	12	.
Mtb hypoxia inh growth	.	-1	15	.	-4	0	12	.
BJeLR viability	9	-2	-11	0	.	8	18	5
Sa RN4220 lethal	.	-2.4	-4.1	.	2.4	0.9	2.2	-5.0
Sa ugtP lethal	.	9	4	.	-3	4	-3	-15
PrP 5UTR inh	-17	-14	-25	-5	.	-5	-22	-11

25: CON=Cc1ccc(N2CCCC2)c([N+](=O)[O-])c1
26: CC1(C)CC(=O)C([N+](=O)[O-])=C(NCCCO)C1
27: Cc1ccc(NC(=O)CSc2nnc(-c3cc(C)[nH]n3)n2N)cc1
28: C[C@@H](C(=O)Nc1ccc2ccccc2c1)[C@H]1C[C@]1(C)[C@H](NC(=O)c1cnccn1)c1ccccc1
29: CCn1c2ccccc2c2nc3ccccc3nc21
30: Cc1ccccc1NC(=O)CCC(=O)OCC(=O)c1ccc(-c2ccccc2)cc1
31: CC(=O)N1CCN(c2ccccc2NC(=O)c2ccc(-c3cccc([N+](=O)[O-])c3)o2)CC1
32: O=C(COC(=O)c1cccc(O)c1)Nc1ccc(OC(F)F)cc1
screen / no.	25	26	27	28	29	30	31	32
Autofluor counter	.	2434	5487	3632	8426	4296	4244	3698
Mtb hypoxia inh	7	3	3	.	.	9	2	3
Mtb hypoxia inh growth	3	11	10	.	.	4	-7	1
BJeLR viability	.	-1	-11	-10	-1	6	-9	-19
Sa RN4220 lethal	11	2.4	3.5	.	6.8	13	-0.6	6.4
Sa ugtP lethal	9	-1	5	.	27	12	7	2
PrP 5UTR inh	.	-10	-13	-19	3	-14	-6	2

33: Cn1ncc(N)c1C(=O)Nc1cccc(C(F)(F)F)c1
34: CCc1ccc(NC(=O)c2ccc3c(=O)n4c(nc3c2)CCCCC4)cc1
35: CCOP(=O)(OCC)C(Nc1cccc([N+](=O)[O-])c1)c1ccccc1 (centres undefined)
36: O=C(Nc1nc2c(F)cc(F)cc2s1)c1ccccn1
37: CC(=NNC(=S)NC(C)C)c1ccccc1OC(F)F
38: CCOc1ccccc1-c1nnc(SCC(=O)NC2(C#N)CCCC2)o1
39: Cc1ccccc1N1CCN(CCN2C(=O)CC(=C3c4ccccc4-c4ccccc43)C2=O)CC1
40: CCOc1ccccc1C(=O)NCC(=O)NCCCc1ccccc1
screen / no.	33	34	35	36	37	38	39	40
Autofluor counter	4853	4435	4631	3162	.	3569	16193*	4238
Mtb hypoxia inh	.	-5	-8	0	12	3	5	6
Mtb hypoxia inh growth	.	-4	-7	3	11	10	4	0
BJeLR viability	13	-2	-15	33	.	.	5	-7
Sa RN4220 lethal	0.8	-1.5	3.2	39	3.9	-2.3	-2.5	1.8
Sa ugtP lethal	-3	-2	-2	18	14	-1	-10	-1
PrP 5UTR inh	-16	-14	-5	-41	.	-30	11	-12

# Structures above with a furan ring, fused or not, in the order listed:
11: Cc1ccc(/C=N/NC(=O)CNC(=O)c2cccc([N+](=O)[O-])c2C)o1
13: CC(=O)N(Cc1ccco1)C1(C(=O)NC2CCCCC2)CCCCC1
19: O=C(Nc1ccc(NC(=O)c2ccc([N+](=O)[O-])cc2[N+](=O)[O-])cc1)c1ccco1
31: CC(=O)N1CCN(c2ccccc2NC(=O)c2ccc(-c3cccc([N+](=O)[O-])c3)o2)CC1
screen / no.	11	13	19	31
Autofluor counter	5391	4232	3146	4244
Mtb hypoxia inh	.	.	19	2
Mtb hypoxia inh growth	.	.	15	-7
BJeLR viability	-1	16	-11	-9
Sa RN4220 lethal	.	-3.2	-4.1	-0.6
Sa ugtP lethal	.	1	4	7
PrP 5UTR inh	-17	-19	-25	-6

# (further entries)
41: CCN(C(=O)CSc1nc2ccc(Cl)cc2[nH]1)C1CCS(=O)(=O)C1 (centres undefined)
42: COc1ccccc1C(=O)N/C(N)=N/c1nc2ccccc2o1
43: O=C(CO/N=C/c1ccc(OC(F)F)cc1)NCc1ccc(F)cc1
44: CN1CCN(C(=O)c2cc(-c3ccco3)on2)CC1
45: [O-]/C(=C(\C(=S)NCc1ccc2c(c1)OCO2)[n+]1ccccc1)c1ccc(Cl)s1
46: Cc1ccccc1C(=O)NC(CC(C)C)C(=O)OCC(=O)c1c(N)n(C)c(=O)n(C)c1=O (centres undefined)
47: CCOC(=O)N1CCN(C(=S)Nc2ccccc2C(C)C)CC1
48: CCN(CC)CCNCC(=O)N1c2ccccc2CCc2ccc(NC(=O)OC)cc21
screen / no.	41	42	43	44	45	46	47	48
Autofluor counter	3476	4231	3362	9400	3338	3168	4219	3206
Mtb hypoxia inh	11	.	.	-81	1	-4	1	7
Mtb hypoxia inh growth	12	.	.	-9	9	-6	-3	3
BJeLR viability	.	-17	3	-8	5	4	-15	5
Sa RN4220 lethal	1.4	-4.1	.	0.2	-4.6	-2.5	-5.0	3.2
Sa ugtP lethal	0	-2	.	3	-1	-3	-1	4
PrP 5UTR inh	-5	-66	-25	-12	-29	-10	-7	-3

49: COc1ccc(NC(=S)N2CCC(c3ccccc3)C2)cc1 (centres undefined)
50: CCOC(=O)N1CCC(N2CCN(Cc3ccc(F)c(F)c3)C(CCO)C2)CC1 (centres undefined)
51: CCCC(=O)c1cc2ccccc2oc1=O
52: CC1CCC(C(=O)NC(C(=O)Nc2ccccn2)C(C)C)CC1 (centres undefined)
53: COC(=O)CSc1nnc(-c2ccoc2C)n1-c1ccc(OC)cc1
54: O=C1Nc2ccccc2OC1CC(=O)N1CCCC1 (centres undefined)
55: COc1cccc2sc3cc(NCCCN4CCOCC4)ccc3c(=O)c12
56: COc1ccc(CN2CC(C(N)=O)Oc3ccccc32)cc1F (centres undefined)
screen / no.	49	50	51	52	53	54	55	56
Autofluor counter	4109	4404	3659	5511	4527	5633	3484	3377
Mtb hypoxia inh	2	2	10	4	.	.	12	4
Mtb hypoxia inh growth	5	11	8	-3	.	.	12	8
BJeLR viability	-5	-2	-12	-14	3	-1	.	7
Sa RN4220 lethal	1.3	1.9	6.3	3.1	0.3	1.3	1.0	-0.5
Sa ugtP lethal	1	5	0	6	-1	8	4	13
PrP 5UTR inh	-49	-27	4	-7	-24	-3	-20	-6

57: Cc1cc(OCC(=O)OCC(=O)N(C)c2c(N)n(Cc3ccccc3)c(=O)[nH]c2=O)ccc1Cl
58: Cc1ccc(C)c(S(=O)(=O)N2CCCC2CNC(=O)c2ccc([N+](=O)[O-])cc2)c1 (centres undefined)
59: CC(=O)N1c2ccc(S(=O)(=O)N3CCOCC3)cc2CC1C (centres undefined)
60: COc1ccc(C2(C(=O)Nc3ccc(C)c(C)c3)CCOCC2)cc1
61: Cc1cc(C)c2c(c1)/C(=N/NC(=S)Nc1ccc(F)cc1)CCC2
62: COc1ccc(Cl)cc1C(=O)NCC#N
63: O=c1cc(CO)oc(CN2CCN(c3cccc(C(F)(F)F)c3)CC2)c1O
64: CC1(C)CC(=O)C2=C(C1)N(c1ccc(F)cc1)C(=O)C2(NC(=O)c1ccccc1)C(F)(F)F (centres undefined)
screen / no.	57	58	59	60	61	62	63	64
Autofluor counter	.	?	5682	3438	3205	9042	4611	.
Mtb hypoxia inh	3	5	7	-1	.	7	.	0
Mtb hypoxia inh growth	-3	0	16	-3	.	4	.	3
BJeLR viability	2	4	2	-1	-8	-13	11	1
Sa RN4220 lethal	0.4	1.8	4.6	2.4	.	4.1	9.7	1.5
Sa ugtP lethal	-8	19	2	-1	.	4	4	1
PrP 5UTR inh	-23	-20	6	-7	6	-21	-2	.

65: O=C1CN(C(=O)COC(=O)c2ccccc2NC(=O)c2ccco2)c2ccccc2N1
66: COc1ccccc1N(O)C1CC(=O)N(c2ccc(Br)cc2)C1=O (centres undefined)
67: CC(C)CC(=O)N1CCC(N(CCc2ccccc2)Cc2ccccc2)CC1
68: CCCCc1ccc(NS(=O)(=O)N(C)C)cc1
69: CC(=O)CC1c2cc(C(F)(F)F)ccc2S(=O)(=O)N1C1CCCC1 (centres undefined)
70: O=C(NC1=NCCS1)c1ccccc1
71: COc1ccc(OCCNS(=O)(=O)c2ccccc2)cc1
72: COc1cccc(N2CCN(C(=O)Nc3ccc4c(c3)NC(=O)CO4)CC2)c1
73: C[C@H](NC(=O)OCc1ccccc1)c1nnc([C@H](Cc2ccccc2)NC(=O)OC(C)(C)C)o1
74: COC(=O)C1CCN(C(=O)c2cc(S(=O)(=O)N3CCCCC3)ccc2Cl)CC1
screen / no.	65	66	67	68	69	70	71	72	73	74
Autofluor counter	9759	4551	4312	6715	.	3749	4697	19630*	4196	6537
Mtb hypoxia inh	2	19	17	4	1	-4	.	4	.	7
Mtb hypoxia inh growth	11	32	11	-3	14	6	.	7	.	-4
BJeLR viability	-24	-1	-2	2	.	-19	2	11	0	.
Sa RN4220 lethal	16	-3.3	6.0	0.0	2.7	-0.8	-3.6	4.3	.	2.5
Sa ugtP lethal	17	-8	-2	13	-2	2	2	-4	.	7
PrP 5UTR inh	-5	-26	-18	-10	.	-19	7	-16	-13	-18

# Source: PubChem
